Mtb H37Rv: Confirmatory growth inhibition assay against Mycobacterium tuberculosis H37Rv, potency (AID 1949). most inactive calls were filed without a number and no value below 0 was filed. hit rate 1.6% among 100,000. inhibition, % at 10 µg/mL; hits with a dose series show IC50 in µg/mL;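 active = confirmed in a dose series; inconclusive = about 50% or more but not retested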;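 note: bacteria grown 7 days with compound before Alamar blue readout; 0% = untreated bacteria and 100% = reference antibiotic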
Numbers without * were called inactive; i = inactive; u = inconclusive.

SMILES	Mtb H37Rv
C=CCc1ccc(OCCCNCc2ccco2)c(OC)c1	5.8%
O=C(C1CC1)N1CCN(c2ccc([N+](=O)[O-])cc2)CC1	i
CCOC(=O)c1sc2ncn(C(CC)C(=O)OC(C)C)c(=O)c2c1C (stereo not drawn)	i
O=C(CCS(=O)(=O)Cc1ccccc1)NC1CCCCC1	i
Cn1c(SCc2ccc(C(C)(C)C)cc2)nnc1-c1cccc(N)c1	i
CC(=O)c1c(C(C)=O)c(C)n(-c2nc(-c3ccc(C)c(C)c3)c(C)s2)c1C	i
Cc1nc(SC(C)C(=O)O)[nH]c(=O)c1C (stereo not drawn)	0.6%
CC(C)NS(=O)(=O)c1cc(C(=O)O)ccc1F	i
Cc1c(C(=O)NCCCc2ccccc2)cccc1[N+](=O)[O-]	i
CCn1c(CNC(=O)Cc2ccc(OC)cc2)nnc1SCC(=O)Nc1ccc(Br)cc1F	i
COCCN1C(=O)C(O)=C(C(=O)c2ccc(C)o2)C1c1ccc(I)cc1 (stereo not drawn)	i
CC(C)N(Cc1nc(-c2ccc(Cl)cc2)no1)S(=O)(=O)c1cccc([N+](=O)[O-])c1	i
COc1ccc(S(=O)(=O)N(CC(=O)Nc2ccc(C)c(Cl)c2)c2ccccc2OC)cc1	i
COc1ccc2[nH]c3c(c2c1)CCNC3c1ccccc1Cl (stereo not drawn)	i
Cc1cc(=O)oc2cc(Oc3ccc([N+](=O)[O-])cc3C(F)(F)F)c(Cl)cc12	i
COCCCNC(=O)C(=O)Nc1ccc(Cl)cc1	i
Cn1c(S)nc2ccccc2c1=O	i
O=C(NCCc1ccc(F)cc1)C1CCCO1 (stereo not drawn)	0.2%
CCCOc1cccc(C(=O)NC(=S)Nc2nc(-c3ccc(C)cc3)cs2)c1	i
COc1ccccc1N1CCN(c2cc(N3CCN(C(=O)C(C)(C)C)CC3)ccc2[N+](=O)[O-])CC1	24.0%
C=CCOc1cccc(C(=O)Nn2cnnc2)c1	i
Cc1cc(=O)oc2cc(OCC(=O)c3cccc([N+](=O)[O-])c3)ccc12	i
Cn1c(=O)c2c(nc(Oc3ccccc3Cl)n2Cc2ccc(Cl)cc2Cl)n(C)c1=O	i
COc1ccc(N(CC(=O)Nc2cccc(C)c2C)S(C)(=O)=O)c(OC)c1	i
CCOc1ccc(S(=O)(=O)N(CC(=O)Nc2cccc(F)c2)c2ccccc2)cc1	i

Ordered by SMILES length (high to low): five of the compounds above
SMILES	Mtb H37Rv
COc1ccc(S(=O)(=O)N(CC(=O)Nc2ccc(C)c(Cl)c2)c2ccccc2OC)cc1	i
COCCN1C(=O)C(O)=C(C(=O)c2ccc(C)o2)C1c1ccc(I)cc1 (stereo not drawn)	i
O=C(CCS(=O)(=O)Cc1ccccc1)NC1CCCCC1	i
Cc1nc(SC(C)C(=O)O)[nH]c(=O)c1C (stereo not drawn)	0.6%
Cn1c(S)nc2ccccc2c1=O	i

(more compounds)
SMILES	Mtb H37Rv
COc1ccc(S(=O)(=O)Nc2ccc(C)cc2NS(=O)(=O)c2ccc(OC)cc2)cc1	i
O=S(=O)(Cc1ccccc1)Nc1ccc(Cl)cn1	i
CC1CCc2sc3ncnc(N4CCN(CCO)CC4)c3c2C1 (stereo not drawn)	i
COc1ccc(S(=O)(=O)N(C)CC(=O)Nc2ccc(C)c(Cl)c2)cc1	i
COC(=O)Nc1cccc(S(=O)(=O)N2CCOCC2)c1	i
COC(=O)c1ccc(NC(=O)CN(c2ccc(C)c(Cl)c2)S(C)(=O)=O)cc1	i
CC(=O)c1ccc(NC(=O)Nc2ccc(Br)cc2C)cc1	i
CCc1c(C)nc(SCC(=O)Nc2ccc(C(=O)OC)cc2)[nH]c1=O	u
CSc1ccc(S(=O)(=O)N(CC(=O)Nc2ccc(CC#N)cc2)c2ccc(C)cc2)cc1	i
CCOC(=O)N1CCN(C(=O)CN(c2ccc(C(C)C)cc2)S(=O)(=O)c2ccc(C)cc2)CC1	2.0%
CC(Sc1ccc(Cl)cc1)C(=O)Nc1ccccc1C(=O)NCc1ccccc1 (stereo not drawn)	9.9%
COc1ccccc1C(CCNS(=O)(=O)c1ccccc1)c1ccc2c(c1)OCO2 (stereo not drawn)	i
Cc1cccc(NC(=O)C2CC(=O)N(c3ccc(C)c(C)c3)C2)n1 (stereo not drawn)	i
O=C(CNS(=O)(=O)c1cccc(C(F)(F)F)c1)Nc1ccccc1F	i
N#CC1=C(N)N(c2cccc(C(F)(F)F)c2)C(=O)C1	i
CCCCOc1ccccc1NC(=O)c1ccc([N+](=O)[O-])cc1	11.6%
CC(=O)Nc1c(O)cc(Br)c2nonc12	0.1%
O=C(Nc1ccc(Cl)cc1C(=O)c1ccccc1)c1cccnc1	i
CCOC(=O)Cn1cnc2ccccc21	i
COC(=O)C(Oc1ccc2c(c1)oc(=O)c1cc(OC)ccc12)c1ccccc1 (stereo not drawn)	1.32µg/mL*
Cc1c(C(=O)N2CCN(C(c3ccccc3)c3ccccc3)CC2)sc(N)c1C#N	i
CCCCNCCCOc1ccccc1Cl	i
CCC(Oc1ccccc1)C(=O)Nc1nnc(COC)s1 (stereo not drawn)	3.8%
COc1ccc(-c2csc(NC(=S)NC(=O)c3cccc(Br)c3)n2)cc1	0.5%
Cc1ccc(OCC(=O)Nc2cc(C)c(I)cc2C)cc1C	i
Further results.
SMILES	Mtb H37Rv
CS(=O)(=O)N(Cc1ccccc1)c1ccc(C(=O)NCc2ccccc2Cl)cc1	i
N#CCCCN1C(=O)C(O)(CC(=O)c2cccs2)c2ccccc21 (stereo not drawn)	i
CCCNC(=S)Nc1cc(C)cc(C)c1	0.9%
CCn1c(SCC(=O)Nc2c(C)cccc2C)nnc1C(C)Oc1ccccc1 (stereo not drawn)	i
Cc1cc(=O)[nH]c(SC(C(=O)c2ccccc2)c2ccccc2)n1 (stereo not drawn)	i
COC(=O)c1cc(NS(=O)(=O)c2cc(Cl)ccc2Cl)cc(C(=O)OC)c1	i
COCCNCC#CCOc1ccc(OC)cc1	i
CCc1ccc(C2C(C(=O)OC)=CN(Cc3ccccc3)C=C2C(=O)OC)cc1	i
O=C(Nc1nnc(CCc2ccccc2)s1)c1ccccc1F	2.6%
CN(c1ccccc1C(=O)Nc1ccc(I)cc1)S(C)(=O)=O	2.4%
CCCN(CCC)C(=O)c1cnn(-c2ccccc2)c1NC(=O)Cc1ccccc1	i
COC(=O)C1=CN(CCc2ccc(OC)cc2)C=C(C(=O)OC)C1c1ccccc1C(F)(F)F	i
O=C(Nc1ccccc1)C(F)C(F)(F)F (stereo not drawn)	i
CNCCOc1ccccc1C(C)(C)C	i
CCc1ccc(NC(=O)CSCc2ccc(C(=O)O)cc2)cc1	i
Cc1ccc2nc(NC(=O)CSc3nc(N)cc(=O)[nH]3)sc2c1	i
Nn1c(COc2ccccc2)nnc1SCC(=O)Nc1ccc(Cl)c(Cl)c1	i
Cc1ccc(NC(=O)C(C)Oc2ccc(Cl)cc2C)c([N+](=O)[O-])c1 (stereo not drawn)	4.0%
Cc1cc(OCC(=O)Nc2ccc(N3CCCCC3)cc2)ccc1Cl	2.9%
Nc1nnc(-c2ccc(Cn3c(-c4cncs4)nc4ccccc43)cc2)s1	0.3%
CCN1CCN(CCCCOc2ccc(C(C)C)c(C)c2)CC1	i
Nc1nc(SCc2ccc(Cl)cc2Cl)n[nH]1	i
CC(C)N(C(=O)COc1cccc2ccccc12)C(C)C	i
CCOC(=O)c1c(NC(=O)c2ccc(C)o2)sc(C(=O)N(CC)CC)c1C	i
CCCCN(c1ccccc1)c1ncnc(N)c1[N+](=O)[O-]	i
The list goes on:
SMILES	Mtb H37Rv
CC(=O)Nc1c(C)cc(C)cc1[N+](=O)[O-]	i
COc1cc([N+](=O)[O-])ccc1NC(=O)COc1c(C)cc(Br)cc1C	i
Cc1ccc(NC(=S)NC(C)(C)C)cc1	i
Cc1c(NC(=S)NC(=O)c2cccc(Cl)c2)c(=O)n(-c2ccccc2)n1C	i
CCc1ccc(S(=O)(=O)NCCOc2ccccc2C(C)C)cc1	8.1%
CCn1nc(C)c(NC(=S)NCCc2ccccc2)c1C	i
O=C(O)C1C2C=CC(C2)C1C(=O)NCCC1=CCCCC1 (stereo not drawn)	i
Nc1cc(N2CCCC2)c(F)cc1[N+](=O)[O-]	i
CCOC(=O)N1CCN(S(=O)(=O)c2cc(Br)ccc2OCC)CC1	i
NC(=O)C1(N2CCCCC2)CCN(C(=S)NC2CC2)CC1	i
COc1ccc(NC(=S)Nc2cccc(NC(C)=O)c2)cc1OC	i
CCCCSc1nnc(-c2ccccc2)c2ccccc12	48.1%
Cc1ccc(NS(=O)(=O)c2ccccc2C#N)cc1C	i
CN(C)S(=O)(=O)N(CC(=O)Nc1ccccc1F)c1ccccc1	i
COc1ccc(S(=O)(=O)N2CCN(C(=O)c3cccnc3)CC2)cc1OC	i
COc1ccc(NC(=S)NC(=O)c2cccc(Cl)c2)cc1[N+](=O)[O-]	i
COc1ccc(CCNC(=S)NNC(=O)c2ccc(C(C)(C)C)cc2)cc1OC	i
CCCCn1c2ccc(C)cc2c2nnc(SC)nc21	i
Cc1ccc(CN(c2ccc(C(=O)NCCSC3CCCCC3)cc2)S(C)(=O)=O)cc1	i
COc1ccc(S(=O)(=O)Nc2ccc(F)cc2)c(C)c1C	i
COc1cc(C(=O)N2CCOCC2)cc(OC)c1OC	i
Cc1ccc(NC(=S)N2CCN(Cc3ccc4c(c3)OCO4)CC2)c(C)c1	i
Cc1ccc(S(=O)(=O)N(CC(=O)N(C)C)c2cccc(Br)c2)cc1	i
Cc1ccc(C(=O)Nc2ccccc2N2CCOCC2)c(C)c1	i
CCC(Sc1nnc2c3ccccc3n(CCc3ccccc3)c2n1)C(=O)Nc1ccc(S(N)(=O)=O)cc1 (stereo not drawn)	u

No new results follow: entries from further up.
SMILES	Mtb H37Rv
COc1ccc(CCNC(=S)NNC(=O)c2ccc(C(C)(C)C)cc2)cc1OC	i
CCCCn1c2ccc(C)cc2c2nnc(SC)nc21	i
Cc1ccc(CN(c2ccc(C(=O)NCCSC3CCCCC3)cc2)S(C)(=O)=O)cc1	i

Back to the main list; the five compounds before the break are reprinted first.
SMILES	Mtb H37Rv
COc1cc(C(=O)N2CCOCC2)cc(OC)c1OC	i
Cc1ccc(NC(=S)N2CCN(Cc3ccc4c(c3)OCO4)CC2)c(C)c1	i
Cc1ccc(S(=O)(=O)N(CC(=O)N(C)C)c2cccc(Br)c2)cc1	i
Cc1ccc(C(=O)Nc2ccccc2N2CCOCC2)c(C)c1	i
CCC(Sc1nnc2c3ccccc3n(CCc3ccccc3)c2n1)C(=O)Nc1ccc(S(N)(=O)=O)cc1 (stereo not drawn)	u
CC(C)NC(=O)CC1Sc2ccc(Cl)cc2NC1=O (stereo not drawn)	i
CCCCOc1ccc(C(=O)Nc2ccc(N3CCN(C)CC3)cc2)cc1	u
CC(C)CC(=O)Nc1ccc(Cl)cc1C(F)(F)F	i
COc1ccc(C(=O)Nc2nc(-c3cccc([N+](=O)[O-])c3)cs2)cc1OC	i
CCc1ccc(S(=O)(=O)Nc2ccc(O)c3ccccc23)cc1	6.4%
CCCOc1nnc(-c2ccc(OCC)cc2)c2ccccc12	26.4%
Cc1ccccc1-n1c(/C=C/c2ccco2)nc2ccc(Br)cc2c1=O	i
CCCc1ccc(C(=O)N2CCN(c3ccccc3OCC)CC2)cc1	8.9%
CCC(Sc1nnc(N)s1)C(=O)NC(C)c1ccccc1 (stereo not drawn)	i
Cn1c(=O)c2c(nc(Oc3ccccc3Cl)n2Cc2ccccc2F)n(C)c1=O	i
Brc1c(OCCCN2CCNCC2)ccc2ccccc12	i
Cc1cc(C(=O)N2CCN(C/C=C/c3ccccc3)CC2)cs1	i
CNc1ccc(C(O)(C(=O)OC)C(F)(F)F)cc1 (stereo not drawn)	i
CCOC(=O)COc1ccc2c(c1)c(C(C)=O)c(C)n2Cc1ccccc1	24.9µg/mL*
Cc1cccc(CSc2nnc(NC(=O)c3cccc(C)c3)s2)c1	5.7%
CC(=O)N(CCC(c1ccccc1)c1ccc(OC(C)C)cc1)Cc1ccccc1F (stereo not drawn)	4.6%
Cc1cc(C)nc(/N=C(/NC(=O)c2ccccc2)Nc2ccccc2C)n1	i
Cc1cc(C(=O)NCc2cc(C(=O)O)co2)co1	i
Cc1sc(NC(=O)CSc2nnc(COc3ccccc3)n2C)nc1-c1ccccc1	0.8%
COc1ccccc1NC(=O)C(=O)NCc1ccccc1	3.0%
COc1ccc(N(C(F)F)S(=O)(=O)c2ccc(C)cc2)cc1	4.5%
O=C(NC(=S)Nc1ccc(I)cn1)c1ccccc1F	i
COc1ccc(C(=O)O)cc1NC(=S)NC(=O)c1ccccc1Cl	i
O=c1n(CCSc2nnnn2-c2ccccc2)nnn1-c1ccccc1	5.8%
O=C(CN1CCCCC1)Nc1cccc(-n2cnnn2)c1	i
Remaining list, next part.
SMILES	Mtb H37Rv
Cc1ccc(S(=O)(=O)N(CC(=O)N2CCC(C(N)=O)CC2)c2ccc(Cl)cc2)cc1	i
COc1ccc(-c2noc(-c3ccco3)n2)cc1OC	i
CCc1ccc(NC(=O)Nc2ccccc2)cc1	1.2%
COc1cc(NC(=O)c2cccc3ccccc23)ccc1NC(=O)C(C)C	0.8%
CC(=O)Nc1ccc(NC(=O)c2ccc(Cn3cc(Cl)cn3)cc2)cc1	i
Cc1ccccc1NC(=O)COc1ccc(Br)cc1C	i
COc1cc(NC(=O)CC2Sc3ccccc3NC2=O)cc(OC)c1 (stereo not drawn)	1.3%
COc1ccccc1/C=C/c1nn2c(-c3ccc(C)cc3)nnc2s1	45.6µg/mL*
CSc1cccc(NC(=O)CSc2nnc(CC(=O)Nc3ccc(C)cc3)n2C)c1	i
Cc1ccc(N2C(=O)C(Cl)=C(NCc3ccccc3)C2=O)c(C)c1	1.9%
NS(=O)(=O)c1ccc(NC(=S)Nc2ncn(Cc3cccc(C(F)(F)F)c3)n2)cc1	i
N#CC1=C(SCC(=O)Nc2ccccc2C(F)(F)F)NC(=O)CC1c1ccco1 (stereo not drawn)	i
CC(=O)c1ccc(NC(=O)NNC(=O)c2ccccc2-n2cccc2)cc1	i
N/C(=N\OC(=O)Oc1ccccc1)c1ccc([N+](=O)[O-])cc1	i
CC(=O)Nc1ccccc1C(=O)C(=O)Nc1ccc(Cl)cc1	i
Cc1cc(OCC(=O)N2CCOCC2)ccc1NC(=O)OCc1ccccc1	i
Cc1ccc(C(=O)Nc2cccc(OC3CCCC3)c2)o1	2.0%
Cc1cc(C)n2ncc(C(=O)Nc3ccc(OC(F)(F)F)cc3)c2n1	4.6%

A portion of the library (hit frequency here may not be typical).
